ALR inh – inhibitors of human sulfhydryl oxidase ALR; P55789; purified ALR, DTT oxidation, H2O2 HRP-luminol luminescence; inhibition, % (test concentration not listed); actives 3.8% (n = 290,000); AID 485317;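 active means mean and each replicate at 75% or more; inconclusive means only one of the two met; inactive means neither met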;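 further: stock transfer was 7.5 nL into about 7.5 µL; 0% = neutral wells and 100% = wells with inactivated enzyme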
Target sequence (P55789 whole entry, looked up): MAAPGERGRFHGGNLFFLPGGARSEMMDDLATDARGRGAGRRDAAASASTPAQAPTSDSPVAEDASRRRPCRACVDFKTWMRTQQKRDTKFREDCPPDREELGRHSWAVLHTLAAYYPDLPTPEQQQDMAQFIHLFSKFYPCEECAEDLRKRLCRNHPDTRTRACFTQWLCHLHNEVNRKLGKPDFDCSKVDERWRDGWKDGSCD
rRNA inh HTS – selective bacterial rRNA inhibition in E. coli | actives 1.6% (n = 350,000) | GFP signal change (wild-type ribosome), % (no concentration beside the values) | E. coli WT GFP vs humanized-ribosome RFP mutants, fluorescence, 24 h; active compounds read low; DMSO median 0, no signal -100;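 active means significant combined selectivity score with lowered wild-type GFP, culture density cut under 30%, mutant RFP and density less affected; inactive means any of these conditions unmet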; further: one replicate is shown; some compounds called inactive have numbers as strong as hits
AF4-AF9 inh – inhibitors of human MLL-AF4/AF9 interaction; actives 0.47% (n = 350,000); inhibition, % at 10 µM; AID 651704; AlphaScreen, biotin-AF4 peptide binding to FLAG-AF9; P42568;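 active means every replicate reaching a set inhibition limit, whatever the replicate mean, cut at about 25% in these data; inconclusive means mean inhibition reaches that limit but some replicates miss it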;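 further: 0% = plate neutral control median and 100% = total signal loss; the record names both 10 and 1 µM as test concentration; the first replicate is given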
Target sequence (P42568 whole entry, looked up): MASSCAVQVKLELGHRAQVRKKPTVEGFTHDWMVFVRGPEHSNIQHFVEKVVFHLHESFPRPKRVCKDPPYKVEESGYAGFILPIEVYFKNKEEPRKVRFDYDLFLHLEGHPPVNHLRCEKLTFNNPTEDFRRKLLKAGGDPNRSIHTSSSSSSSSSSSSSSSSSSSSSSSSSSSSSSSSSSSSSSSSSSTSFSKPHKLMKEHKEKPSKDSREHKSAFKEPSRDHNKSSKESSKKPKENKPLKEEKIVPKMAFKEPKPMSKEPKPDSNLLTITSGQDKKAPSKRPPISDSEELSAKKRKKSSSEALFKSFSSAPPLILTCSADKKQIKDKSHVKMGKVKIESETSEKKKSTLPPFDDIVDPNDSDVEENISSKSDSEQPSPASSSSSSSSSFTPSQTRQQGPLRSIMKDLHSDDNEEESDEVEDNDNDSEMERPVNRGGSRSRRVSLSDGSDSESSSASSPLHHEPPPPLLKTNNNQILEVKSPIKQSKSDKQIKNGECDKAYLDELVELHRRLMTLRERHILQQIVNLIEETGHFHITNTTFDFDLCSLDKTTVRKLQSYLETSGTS
Calb FLC – C. albicans growth modulation with fluconazole; C. albicans CaCi-2 (fluconazole-resistant clinical isolate) + fluconazole, Alamar Blue growth, 48 h; growth inhibition, % (test concentration not listed); actives 0.57% (n = 300,000); AID 1979;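 active means most replicates above 75%; inconclusive means exactly half above 75%; inactive means most below 75%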;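 further: all wells also contain fluconazole at 8 µg/ml as a sub-toxic cotreatment; 0% = median of DMSO wells and 100% = median of geldanamycin control wells; wells of about 8 µL received 7.5 nL stock; the first replicate is given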
FGF22 binding – FGF22 (human) thermal shift binding | recombinant FGF22 thermal shift, SYPRO orange fluorescence; percent of sucrose octasulfate shift, DMSO zero | calls only at 9.99 µM | actives 1.5% (n = 340,000) | AID 651658;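 active means melting point raised past a set limit in the mean and every replicate; inconclusive means no clear call; three in four hits are not shown here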
Target sequence (Q9HCT0 whole entry, looked up): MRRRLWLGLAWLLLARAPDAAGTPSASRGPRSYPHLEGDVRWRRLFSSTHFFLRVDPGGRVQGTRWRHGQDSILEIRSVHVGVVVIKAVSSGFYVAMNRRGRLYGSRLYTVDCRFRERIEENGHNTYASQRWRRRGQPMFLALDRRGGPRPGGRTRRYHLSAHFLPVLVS
RanGTP-Imp inh – inhibitors of RanGTP-importin-beta interaction, primary screen, biochemical, FRET, CFP-Ran, YFP-importin-beta, homogeneous; actives 1.1% (n = 300,000); cell-free CFP-Ran/YFP-importin-beta FRET ratio; inhibition, % (no concentration beside the values);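 active means most replicates above 15%; inconclusive means exactly half above 15%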;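 further: 0% = DMSO wells and 100% = Ran loaded with GDP instead of GTP; wells of about 40 µL received 100 nL stock; the first replicate is given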
T cruzi repl – blocks replication of Trypanosoma cruzi | T. cruzi beta-gal in NIH3T3, luminescence, 90 h | inhibition, % (no concentration beside the values) | actives 1.4% (n = 300,000);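 active means mean inhibition across valid replicates above about 55%, limit read from the data; inconclusive means mean below that limit but half or more replicates reach it; inactive means mean below it, under half of replicates reach it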;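 further: signal also drops with host cell toxicity which is not excluded here; 0% = plate median of DMSO wells and 100% = zero luminescence signal; higher percent means less beta-gal luminescence so fewer parasites; stock transfer was 50 nL into about 50 µL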
Beta apoptosis – beta cell apoptosis inhibition | INS-1E cytokine-induced death, ATP luminescence, 48 h; percent of positive-control rescue, neutral wells zero | protection from apoptosis, % (concentration not given with the values) | actives 0.8% (n = 300,000) | AID 435005;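 active means all replicates at 75% or more, or half of them and the mean; inconclusive means half reach 75% but not the mean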;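 further: 0% = cytokine-treated negative control wells and 100% = positive control rescue; higher means more ATP so stronger rescue from cytokine killing; wells of about 40 µL received 100 nL stock; the first replicate is given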
rRNA inh HTS OD600 – second read-out of rRNA inh HTS, no call of its own (marks repeat the call); OD600 change, %; measured here: OD600 growth;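 optical density of the mix in the first replicate; 0 = DMSO median and -100 = no signal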
rRNA inh HTS RFP – second read-out of rRNA inh HTS, no call of its own (marks repeat the call); RFP signal change, %; measured here: RFP humanized mutant strains;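 first replicate; 0 = DMSO median and -100 = no signal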
An asterisk follows results filed as active; i = inactive; ? = inconclusive; . = not tested or not shown; + = active, no number; & = joins results of further samples. An excerpt, so the mix of outcomes need not match the whole.

SMILES	ALR inh	rRNA inh HTS	rRNA inh HTS OD600	rRNA inh HTS RFP	AF4-AF9 inh	Calb FLC	FGF22 binding	RanGTP-Imp inh	T cruzi repl	Beta apoptosis
COc1ccc(NC2CCCN(C(=O)c3ccc(CSC)o3)C2)cc1OC (stereo not drawn)	99*	-3	-3	-1.3	1.4	-13	i	-2.0	15	-2
O=C(CCCOc1ccccc1)N1CCN(S(=O)(=O)c2cccs2)CC1	-12	.	.	.	.	8	.	?	2	-4
Cc1cccc(/C=N\Nc2nnc(-c3ccccc3)c(=O)[nH]2)c1	4	.	.	.	.	3	.	0.2	-25	0
COc1cc(C(=O)NCc2ccc(C(=O)NCC(OC)OC)cc2)cc(OC)c1OC	-4	-1	-1	-1.3	-1.6	-28	.	0.4	-5	-2
COc1ccccc1NC(=S)NNC(=O)c1ccccc1Br	52	.	.	.	-4.0	36	i	1.0	-18	-2
Cc1ccc(NC(=O)C(c2ccccc2)C2CCCC2)cc1 (stereo not drawn)	.	8	3	-1.6	-3.2	-3	i	2.2	29	.
CC(C)[C@H](NC(=O)N1CCn2c1nc1ccccc12)C(=O)NCc1ccc(F)cc1	-7	7	16	1.6	2.3	-20	i	0.8	2	2
Cc1ccccc1CCNC(=O)Cn1nc(C)c2c(C)n(-c3ccccc3)nc2c1=O	-10	4	1	1.1	-0.2	16	i	-6.1	-8	3
Fc1ccc2cc(CCO[C@H]3CCCCO3)ncc2c1	2	6	8	0.3	-4.2	.	i	.	.	-6
CCOC(=O)C(C)N1C(=O)S/C(=C\c2ccc(-c3ccccc3C(=O)O)o2)C1=O (stereo not drawn)	1	-3	3	-1.5	-0.4	3	i	2.6	1	-7
O=S1(=O)CCC(NC(=S)NCCNC(=S)NC2CCS(=O)(=O)C2)C1 (stereo not drawn)	-1	.	.	.	.	27	.	3.5	-23	-7
O=C(NCc1ccccc1)C1=C[C@@H](c2ccc3c(c2)OCO3)C[C@@H](OCc2ccc(CO)cc2)O1	-4	-10	-13	-2.2	-7.0&-1.9&-7.9	-1	i	-1.4	42	-1
COc1ccc(C(=O)NCc2nnc(SCC(=O)Nc3cccc(C(F)(F)F)c3)o2)cc1OC	72	.	.	.	.	-3	.	-2.3	1	-14
O=c1oc(-c2ccccc2NS(=O)(=O)c2ccc3ccccc3c2)nc2ccccc12	-79	.	.	.	.	2	.	-3.3	0	-8
COc1ccc(S(=O)(=O)NCCC(=O)N2CCCN(C)CC2)cc1	-1	2	6	-2.4	-0.5	.	i	.	.	-7
Cc1ccc(C)c(OCC(=O)NNC(=O)c2ccc(NC(=O)C3CC3)cc2)c1	-7	-37*	-16*	4.8*	0.0	-8	i	.	.	-2
CC1=NN(c2ccc(C)c(C)c2)C(=O)/C1=C/c1ccc2c(c1)n(C)c(=O)n2C	-13	.	.	.	.	22	.	-0.3	-11	.
Cc1ccc(-n2ncc3c2CCCC3NC(=O)CCc2cnn(C)c2)cc1C (stereo not drawn)	-2	-2	-4	-2.5	1.7	-4	i	2.2	-6	-2
Cc1onc(-c2ccccc2Cl)c1C(=O)OCC(=O)N1CCCc2ccccc21	.	.	.	.	.	13	.	4.7	1	-3
COCCNC(=O)CN(C(=O)Cn1nnc2ccccc21)c1cccc(C)c1C	-2	2	7	-2.5	-1.7	22	i	0.3	-11	0
COC(=O)Cc1ccc(NC(=O)c2ccc(NC(=O)c3ccco3)cc2)cc1	-3	8	7	2.4	0.7	1	i	?	-25	4
O=C(/C=C/c1cccc(C(F)(F)F)c1)N1CCN(c2ccccn2)CC1	2	2	3	-2.2	1.7	41	i	-2.0	11	-1
CCn1c(-c2ccccc2Cl)nn(CC(=O)Nc2ccccc2C)c1=S	-5	.	.	.	.	4	.	0.5	1	-1
COc1ccc(C(=O)N2CCCC(C(=O)O)C2)c2ccccc12 (stereo not drawn)	-16	7	4	-1.2	-0.5	4	i	-2.4	-21	-6
c1ccc(C(c2ccccc2)N2CCN(C(c3ccccn3)c3nnnn3C3CCCC3)CC2)cc1 (stereo not drawn)	.	.	.	.	.	4	.	0.3	5	16
Cc1onc(-c2ccccc2)c1C(=O)Nc1ncc([N+](=O)[O-])s1	47	-32	-53	3.8	-8.7	53	+	3.2	12	66
CCOC(=O)/C(C#N)=C/c1cn(CCC(=O)O)nc1-c1ccccc1	3	.	.	.	.	-7	.	4.7	-17	1
O=C(NC(=S)NNC(=O)c1cccs1)c1ccccc1	99*	-49	-73	-15	-2.3	0	i	0.3	-5	9
CN1CCN(C(c2ccc(F)cc2)c2nnnn2Cc2cccs2)CC1 (stereo not drawn)	24	.	.	.	.	1	.	-3.2	31	-2
COc1ccc(S(=O)(=O)N2CCC(NC(=O)C(Cc3cccc(OC)c3OC)NC(C)=O)CC2)cc1 (stereo not drawn)	-3	10	15	2.0	-1.0	1	i	4.2	-16	-4
Cc1cc(C)nc(SCc2ccc(C(=O)N/N=C/C3CCCCC3)cc2)n1	-7	10	6	1.8	-4.2	2	i	2.6	-5	-4
CCOc1cc(/C=C2\NC(=S)N(c3c(C)n(C)n(-c4ccccc4)c3=O)C2=O)ccc1O	99*	1	-3	6.9	-0.1	13	i	-5.7	-13	-10
CC(C)N(O)C(=O)NC(C)(C)C	-5	.	.	.	.	1	.	-2.3	-6	-9
O=C(Nc1cccc([N+](=O)[O-])c1)N1CCc2ccccc2C1	-15	-22*	-14*	-7.4*	5.7	12	i	-0.2	9	5
CC1CCN(CCNC(=O)C2CCCN(S(=O)(=O)c3cccc4nonc34)C2)CC1 (stereo not drawn)	.	.	.	.	.	-2	.	1.7	27	-2
NC1=NC(=O)/C(=C/c2cc(Br)c(O)c(Br)c2)S1	31	10	-11	9.9	1.8	4	+	-9.7	1	0
CC(=O)NC1=C(NC2CCS(=O)(=O)C2)C(=O)c2ccccc2C1=O (stereo not drawn)	-18	.	.	.	.	23	.	-1.8	-18	53
CCN(CC)CCCNc1nc(N)c([N+](=O)[O-])c(N2CCCCCC2)n1	-12	7	0	2.8	3.9	-5	i	-3.1	50	-8
O=C(CCS(=O)(=O)c1ccccc1)Nc1ccc(S(=O)(=O)Nc2ncccn2)cc1	-3	9	14	-0.3	0.5	-6	i	-2.9	3	-8
Cc1cc(C)c2sc(N(CCCN(C)C)C(=O)COc3ccc(Cl)cc3)nc2c1	-9	3	0	11	-1.8	-10	i	-1.9	44	3
COCCCN(CCCN)Cc1ccco1	-3	.	.	.	.	-18	.	?	5	0
Cc1ccc(C(C(=O)NCC2CCCO2)N(C(=O)c2snc(C(N)=O)c2N)c2ccccc2)o1 (stereo not drawn)	6	8	4	-2.8	-1.0	-3	i	0.1	2	-1
C=CCN(CC(=O)NCc1ccc(OC)cc1)C(=O)c1csnn1	-10	.	.	.	.	-2	.	-4.5	-2	-3
CC(C)(C)c1cc(C2=CSC3=NCCN23)cc(C(C)(C)C)c1O	.	.	.	.	.	-4	.	-4.0	30	10
O=S(=O)(O)c1cc(O)c2c(O)c(N=Nc3cc(Cl)ccc3O)c(S(=O)(=O)O)cc2c1	54	.	.	.	.	85*	.	57*	-2	50
Cc1ccc(NC(=O)CCc2c[nH]c3ccccc23)nc1	40	2	3	-1.2	6.1	-16	i	-2.4	-4	.
O=C(Oc1ccc2ccc(=O)oc2c1)c1ccc([N+](=O)[O-])cc1	-1	15	10	-1.3	2.7	0	i	12	-5	-4
O=C1CCc2cc(S(=O)(=O)NCc3ccc(Cl)cc3)cc3c2N1CC3	-2	4	3	2.0	-2.1	1	i	-2.2	-16	-3
COc1ccc(CCn2c(-c3cc([N+](=O)[O-])cc([N+](=O)[O-])c3)nc3nc4ccccc4nc32)cc1OC	-11	.	.	.	.	-3	.	-0.6	62*	47
O=C(NC(=O)c1ccccc1)Nc1ccccc1O	-5	4	7	-2.2	-1.3	-2	i	0.5	-11	-7
CC1CC(C)(C)Nc2ccc(N=O)cc21 (stereo not drawn)	.	-3	-2	18	17	14	i	5.1	98*	.
O=C(Nn1cnc2ccccc2c1=O)c1ccccc1[N+](=O)[O-]	-3	15	14	0.3	-3.0	25	i	2.2	-10	-9
CCN1CCN(C(=O)c2cc3c(=O)oc4ccc(C)cc4c3s2)CC1	52	7	1	-1.9	-1.5	3	i	1.8	1	-2
COc1ccccc1OCCSc1nc2ccc([N+](=O)[O-])cc2s1	-20	.	.	.	.	-12	.	5.3	9	-7
COc1ccc(S(=O)(=O)N(C)c2ccc(C(=O)N3CCOCC3)cc2)cc1	0	.	.	.	.	6	.	1.6	27	-1
COc1ccc(C(=O)N/C(=C\c2ccc(OC)c(OC)c2)C(=O)N2CCCCC2)cc1	.	-4	0	-3.7	1.3	9	i	-2.8	2	0
Cn1c(SCc2ccccn2)nnc1-c1ccncc1	-9	.	.	.	.	-3	.	6.5	-15	-10
CC1SCC(NC(=O)c2ccccc2Cl)CS1 (stereo not drawn)	-2	-1	-1	-3.8	-1.7	-11	i	2.5	8	-2
CCCCOc1ccc(-c2c(C(=O)Nc3ccccc3)c(C)[nH]c(=S)c2C#N)cc1	12	.	.	.	.	54	.	4.2	17	-1
CCOc1ccc(NC(=O)CSc2ccc(-c3ccccn3)nn2)cc1	.	.	.	.	.	2	.	-0.5	26	6

Shown as a hit in FGF22 binding, of those listed so far:
structure	ALR inh	rRNA inh HTS	rRNA inh HTS OD600	rRNA inh HTS RFP	AF4-AF9 inh	FGF22 binding	RanGTP-Imp inh
Cc1onc(-c2ccccc2)c1C(=O)Nc1ncc([N+](=O)[O-])s1	47	-32	-53	3.8	-8.7	+	3.2
NC1=NC(=O)/C(=C/c2cc(Br)c(O)c(Br)c2)S1	31	10	-11	9.9	1.8	+	-9.7

(cont.)
SMILES	ALR inh	rRNA inh HTS	rRNA inh HTS OD600	rRNA inh HTS RFP	AF4-AF9 inh	Calb FLC	FGF22 binding	RanGTP-Imp inh	T cruzi repl	Beta apoptosis
CSc1cccc(NC(=O)CN(C)S(=O)(=O)c2ccc(C)cc2)c1	-8	.	.	.	.	5	.	2.9	-20	-1
N#Cc1ccccc1	-18	-7	-5	-0.9	.	.	i	.	.	-5
CC(=O)Nc1ccc(CN2CCN(C3CCCC3)C(CCO)C2)cc1 (stereo not drawn)	-12	6	14	4.0	-2.8	-2	.	0.2	-8	-4
O=C(CCS(=O)(=O)c1ccccc1)N1CCCc2ccccc21	4	1	2	-4.4	-0.4	-16	i	1.1	-10	-11
Cc1ccnc(NS(=O)(=O)c2ccc(NC(=O)C(C)(C)C)cc2)n1	-4	0	4	7.0	3.9	0	i	-0.8	-11	-5
COc1ccc(Cl)c2sc(N3CCN(C(C)=O)CC3)nc12	-68	-6	-7	-2.6	3.5	-12	i	-1.7	-1	-4
Oc1[nH]c2ccccc2c1/C=N/c1nccs1	29	.	.	.	.	-5	.	-1.6	1	3
Clc1cc(Br)ccc1OCCn1ccnc1	-4	.	.	.	.	39	.	-2.0	7	-5
CCN1C(=O)c2ccccc2Sc2ccc(C(=O)NCCC(C)C)cc21	-5	2	-21	3.4	3.7	-2	i	0.0	9	-1
